Rango release inh: qHTS Assay for Inhibitors of RanGTP induced Rango (Ran-regulated importin-beta cargo) - Importin beta complex dissociation. Snurportin-1 (Homo sapiens) + GTP-binding nuclear protein Ran (Homo sapiens) + Importin …. Biochemical FRET Rango-importin beta, RanGTP-induced dissociation. Potency, µM (top dose mostly 46.1 µM), without a hit: at the highest dose activity change, negative = inhibition. 340,000 tested, 0.071% active; active means falling FRET ratio curve, often poorly fitted, with flat reads before Ran was added; inconclusive means other falling curves, or compound fluorescence or quenching; inactive means flat or rising ratio curve;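 note: potency is the fitted concentration of half-maximal effect; % of control where 0% means no effect; nearly all actives have a fitted effect of over 45% in size; -100% = wells without RanGTP and RCC1; the record marks most hits as doubtful in a second field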
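Two FRET readings bracket the reaction: one 5 min after compound meets Rango–importin beta, another 45 min after RanGTP-RCC1 (0.6 uM Ran, 0.2 uM RCC1, 2 mM GTP) is added. Only the second defines inhibition.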
GLA inh pH 4.5: qHTS Assay for Inhibitors of Human alpha-Galactosidase at pH 4.5 | Alpha-galactosidase A (Homo sapiens), P06280 | purified enzyme, 4-MU-alpha-Gal fluorescence, pH 4.5 | activity change, negative = inhibition, % at 105 µM | 230,000 tested, under 10 active | AID 1467, 2008; inconclusive = small, poorly fitted or top-dose-only inhibition, or a rising curve; inactive = flat fitted curve, though single readings scatter; no compound was filed as active;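 note: 0% = full activity with enzyme and -100% = basal without enzyme; dose as in the result columns while the protocol names 77 µM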
Rango-impB inh: qHTS Assay for Inhibitors of Rango (Ran-regulated importin-beta cargo) - Importin beta complex formation; 340,000 tested, 0.031% active; Potency, µM (titrated, usually from 92.2 µM), for inactives: at the highest dose inhibition of complex formation; Rango CFP/YFP FRET sensor + importin beta, 45 min; AID 540263, 2011; active = rising FRET ratio curve, often small or poorly fitted; inconclusive = mostly compound fluorescence or quenching in the first reads; inactive = flat curves in all reads;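 note: potency is the fitted concentration of half-maximal effect; 0% = DMSO wells and 100% = buffer wells lacking importin beta; nearly all actives have a fitted effect of over 15% in size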
Target sequence (Q14974 whole entry, looked up): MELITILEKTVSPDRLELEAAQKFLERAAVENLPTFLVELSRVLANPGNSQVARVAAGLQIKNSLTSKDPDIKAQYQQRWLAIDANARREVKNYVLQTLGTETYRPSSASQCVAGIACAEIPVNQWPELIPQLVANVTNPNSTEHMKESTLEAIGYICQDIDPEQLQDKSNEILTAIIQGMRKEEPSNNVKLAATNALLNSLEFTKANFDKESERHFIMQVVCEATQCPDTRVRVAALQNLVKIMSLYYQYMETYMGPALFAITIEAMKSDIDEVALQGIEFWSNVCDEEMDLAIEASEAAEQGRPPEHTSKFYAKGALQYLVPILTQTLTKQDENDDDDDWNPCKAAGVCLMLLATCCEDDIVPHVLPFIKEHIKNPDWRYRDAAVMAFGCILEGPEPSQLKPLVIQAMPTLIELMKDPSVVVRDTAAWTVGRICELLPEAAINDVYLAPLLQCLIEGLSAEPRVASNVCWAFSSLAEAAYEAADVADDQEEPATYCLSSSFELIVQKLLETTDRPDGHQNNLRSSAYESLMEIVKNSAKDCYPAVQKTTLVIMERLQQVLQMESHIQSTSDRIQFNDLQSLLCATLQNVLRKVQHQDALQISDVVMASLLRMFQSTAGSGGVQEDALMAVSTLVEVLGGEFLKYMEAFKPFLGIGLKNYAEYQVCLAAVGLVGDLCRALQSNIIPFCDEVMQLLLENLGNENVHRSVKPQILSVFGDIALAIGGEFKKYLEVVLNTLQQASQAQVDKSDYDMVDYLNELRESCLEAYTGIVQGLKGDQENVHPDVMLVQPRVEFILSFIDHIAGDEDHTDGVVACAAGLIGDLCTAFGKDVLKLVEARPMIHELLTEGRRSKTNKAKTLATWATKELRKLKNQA
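FRET biosensor (snurportin 1 IBB flanked by EYFP and cerulean), 50 nM, with compound 5 min, then 0.125 microM importin beta in PBS, 1 mM DTT, 0.02% Tween-20, 0.1% BSA. CFP/YFP ratio read after 45 min at room temperature; pre-read flags interference.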
miR-21 reporter: qHTS Assay for Modulators of miRNAs and/orActivators of miR-21; HeLa miR-21 FLuc reporter, luciferase, 48 h; Potency, µM (series often up to 38.3 µM), for the others: top-dose reporter change, positive = more light; 340,000 tested, under 10 active; AID 2288, 2010; active = well fitted rising curve with a large enough effect; inconclusive = small, poorly fitted or top-dose-only effect; inactive = no such curve, though single readings can be large or run the other way;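 note: % of control where 0% means no effect; miR-21 action dims this reporter so a rising signal means less miR-21 action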
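HeLa cells endogenously expressing miR-21, stably carrying CMV-driven firefly luciferase with a downstream miR-21 binding site, 2000 cells/well. Titrations up to approximately 40 uM, 48 hours; luciferase luminescence read.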
Numbers without * were called inactive; ? = inconclusive; . = not tested or not shown; & = joins results of further samples; [ ] = remark or other dose. An excerpt; count on the stated rates, not on these rows.

compound,Rango-impB inh,miR-21 reporter,GLA inh pH 4.5,Rango release inh
O=C(Cc1ccccc1)NCC(=O)N/N=C/c1ccc([N+](=O)[O-])s1,3.5%,?,.,-14%
CCS(=O)(=O)c1ccc2oc(SCC(=O)Nc3ccc(OC)cc3OC)nc2c1,3.2%,-19%,9,-7%
CC1CCCCN1CCNC(=O)c1ccc2c(c1)N(Cc1ccccc1F)C(=O)c1ccccc1S2=O (centres undefined),-3.2%,-19%,.,-3%
CC(=O)Nc1cc(-c2nn(CC(=O)N3CCCCC3)c(=O)c3ccccc23)ccc1N1CCOCC1,-0.2%,-9%,3,1%
CC(=O)Nc1ccc(NC(=O)C(C)OC(=O)CCN=C2NS(=O)(=O)c3ccccc32)cc1 (centres undefined),-1.8%,-2%,.,-3%
COc1ccccc1CNC(=O)C(NC(=O)c1ccccc1)C(C)C (centres undefined),-1.3%,0%,10,-11%
Cc1c(C(=O)OCC(=O)NCc2ccccc2)oc2ccccc12,2.1%,.,.,-10%
CC1CCC2C(=O)N(c3ccc(Cc4ccncc4)cc3)C(=O)C2C1 (centres undefined),-1.1%,16%,8,8%
O=C(N/N=C/c1c[nH]c2ccccc12)C1CC1c1ccccc1 (centres undefined),-1.0%,17%,-7,-4%
O=C(CCCC(=O)OCC1CCCO1)OCC1CCCO1 (centres undefined),-1.1%,-5%,2,16%
COc1ccc(N2CCN(C(=O)CN3C(=O)NC4(CCCCCC4)C3=O)CC2)cc1,0.8%,.,.,-11%
Cc1cccc(CSc2cn(CC(=O)N3CCOCC3)c3ccccc23)c1,-0.3%,-57%&-59%,-6,-17%
O=C(C1CCC1)N1CCc2cc(S(=O)(=O)Nc3ccc4c(c3)OCO4)ccc21,0.4%,-2%,-14,18%
C=CCNC(=O)c1ccccc1NC(=O)c1ccc(Cl)c(S(=O)(=O)Nc2ccccc2)c1,-3.9%,3%,4,4%
Cc1ccnc2nc(C(=O)N3CCN(S(=O)(=O)c4ccccc4)CC3)nn12,-0.4%,-2%,7,-2%
CCOc1ccc2[nH]cc(-c3csc(N)n3)c2c1,-0.5%,-10%,.,10%
O=[N+]([O-])c1cccc(SSc2cccc([N+](=O)[O-])c2)c1,0.1%,.,.,-11%
Cc1cc(N2CCN(c3nc(-c4ccc([N+](=O)[O-])cc4)cs3)CC2)c2ccccc2n1,7.5%,0%,-12,-10%
CC(OC(=O)C1=COCCO1)C(=O)Nc1ccccc1C#N (centres undefined),-6.3%,-2%,2,-9%
Cc1ccc(S(=O)(=O)N2CCOCC2)cc1C(=O)Nc1ccc2c(c1)CCC2,-3.3%,-1%,-1,12%
Cc1ccn(CCNC(=O)C2CCC(=O)N(Cc3ccc(Cl)cc3)C2)n1 (centres undefined),-0.6%,0%,.,20%
COCc1c(C(=O)N2CCN(Cc3c(F)cccc3Cl)CC2)oc2ccccc12,3.3%,14%,.,-5%
C/C(CC(=O)Nc1cccc(C(F)(F)F)c1)=N\NC(=O)C(=O)NCC(C)C,-2.2%,-3%,0,-24%
Cc1ccc(-c2c[n+](Cc3cccc(Cl)c3)c3n2CCC3)cc1,2.2%,?,0,4%
COc1ccc(OCC(=O)OCC(=O)NCc2ccco2)cc1,-3.4%,-3%,5,-10%
COc1ccc(CNC(=O)c2cc(-c3ccco3)on2)cc1,6.2%,-14%,-8,-1%
COc1ccc(CCNC(=O)COC(=O)C2CC2C)cc1 (centres undefined),-2.5%,.,.,-16%
COc1ccc(C(=O)Nn2c(C)nc3ccccc3c2=O)c(OC)c1,0.2%,-11%,.,0%
COc1ccc(OC)c(S(=O)(=O)Nc2ccc(C(C)=O)cc2)c1,-0.8%,-1%,1,-4%
Cc1ccc(NC(=O)C(=O)NCCN2CCN(Cc3ccc([N+](=O)[O-])cc3)CC2)cc1,1.6%,-6%,0,2%
NC(=O)c1ccc(NC(=O)COC(=O)c2c3c(nc4ccccc24)/C(=C\c2ccc4c(c2)OCO4)CCC3)cc1,?,8%,0,?
Cc1ccc(OCC(=O)NC(C)c2ccccc2)cc1 (centres undefined),-3.0%,3%,.,4%
COC(=O)Cc1c(C)c2ccc(OCC(=O)N3CCOCC3)cc2oc1=O,0.6%,-3%,-6,-1%
CC(C)c1ccccc1N1CC(C(=O)O)CC1=O (centres undefined),2.1%,-5%,2,-10%
O=C(NCCN1CCN(c2ccccc2F)CC1)c1cccn2c(=O)c3ccccc3nc12,-3.1%,-7%,0,?
COCCNC(=S)Nc1ccc(N2CCOCC2)c(S(=O)(=O)Nc2ccccc2OC)c1,-0.6%,.,.,-4%
Cc1cc(C)c(S(=O)(=O)N2CCOC2CNC(=O)C(=O)NCCN2CCOCC2)c(C)c1 (centres undefined),0.7%,-1%,.,-3%
O=C(NC(=S)NCC1CCCO1)c1ccc(Br)o1 (centres undefined),6.8%,-46%,?,2%
Fc1ccc(Cn2c(SCc3ccc(F)c(C(F)(F)F)c3)nnc2C(F)(F)F)cc1,-0.4%,-3%,-5,13%
CN(C)c1ccc(N2C(=O)CC(c3ccccc3)CC2=O)cc1,-1.1%,-18%,1,-5%

Complete entries, looked up by structure. Order of screens: Rango-impB inh | miR-21 reporter | GLA inh pH 4.5 | Rango release inh
Results for NC(=O)c1ccc(NC(=O)COC(=O)c2c3c(nc4ccccc24)/C(=C\c2ccc4c(c2)OCO4)CCC3)cc1 → ? | 8% | 0 | ?
Results for Cc1ccc(S(=O)(=O)N2CCOCC2)cc1C(=O)Nc1ccc2c(c1)CCC2 → -3.3% | -1% | -1 | 12%
Results for CN(C)c1ccc(N2C(=O)CC(c3ccccc3)CC2=O)cc1 → -1.1% | -18% | 1 | -5%
Results for O=[N+]([O-])c1cccc(SSc2cccc([N+](=O)[O-])c2)c1 → 0.1% | . | . | -11%

New compounds follow
compound,Rango-impB inh,miR-21 reporter,GLA inh pH 4.5,Rango release inh
O=C(NC(=S)Nc1ccccc1Br)C1CCCC1,0.3%,-54%,.,0%
Cc1cc(C)c2c(c1)-c1c(ssc1=S)C(C)(C)N2C(=O)CSc1nncn1C,-0.1%,25%,-12,-1%
O=C(CSc1ccc(Cl)cc1)Nc1ccc(NC(=O)c2ccco2)cc1,-7.3%,-14%,1,-2%
C=CCNC(=O)C1CCN(S(=O)(=O)c2ccc3ccccc3c2)CC1,-1.2%,-1%,.,-14%
COc1cccc(C2c3c(-c4ccccc4O)n[nH]c3C(=O)N2Cc2ccco2)c1 (centres undefined),0.0%,-3%,-9,1%
CSCCC(NS(=O)(=O)c1ccc(C)cc1C)C(=O)Nc1cccnc1 (centres undefined),-2.5%,.,.,0%
CCOC(=O)C(CC)n1cnc2c(nnn2-c2ccccc2)c1=O (centres undefined),-1.7%,1%,.,-9%
O=C(C1COc2ccccc2O1)N1CCN(c2ccc([N+](=O)[O-])cc2)CC1 (centres undefined),0.0%,.,.,-11%
CCC(CC)c1nnc(NC(=O)COc2ccc3c(C)cc(=O)oc3c2)s1,2.5%,2%,11,10%
C=COCCNC(=O)C1CC(=O)N(c2ccc(C)cc2)C1 (centres undefined),4.8%,-3%,2,0%
CCOC(=O)C1CCN(S(=O)(=O)c2ccc3c(c2)CC(C)N3C(=O)C2CC2)CC1 (centres undefined),8.7%,7%,.,-2%
COc1cccc(CNC(=O)CCNS(=O)(=O)c2ccc3[nH]c(=O)oc3c2)c1,0.5%,0%,.,-1%
C=CCN1C(=O)C2(NNc3ccccc3O2)c2ccccc21 (centres undefined),?,-9%,1,?
O=C1[C@H]2C(c3ccccc3)=NN(c3ccccc3)[C@H]2C(=O)N1c1ccccc1,?,2%,10,-14%
O=C(CSc1nc(N2CCOCC2)nc(N2CCOCC2)n1)Nc1cccc(C(F)(F)F)c1,-2.1%,-4%,.,-15%
CCCC(C(=O)NCC1CCCO1)N(C(=O)CNS(=O)(=O)c1ccccc1)c1ccc(F)cc1 (centres undefined),0.0%,1%,.,-11%
O=C(OCc1ccccc1)N(CCCCN(CCCNCc1ccccc1)C(=O)OCc1ccccc1)CCCNCc1ccccc1,-0.4%,.,.,-8%
O=C(CN1CCOCC1)Nc1ncc(Br)cc1Br,-0.8%,-2%,-1,-18%
COc1ccc(C(=O)n2nc(-c3ccc(C)cc3)nc2N)cc1OC,1.3%,-2%,2,4%
CCOc1ncccc1C(=O)OCC(=O)Nc1cccc(S(=O)(=O)N2CCCCCC2)c1,3.1%,.,.,1%
CCN(CC)CCN1C(=O)C(=O)/C(=C(/O)c2ccc(S(=O)(=O)N3CCOCC3)cc2)C1c1ccc(C(C)C)cc1 (centres undefined),-1.2%,-2%,.,-8%
O=C(c1ccc(F)cc1)N1CCCC(c2nc(-c3cccs3)no2)C1 (centres undefined),2.9%,2%,-6,16%
Cc1cccc(NC(=S)N(CCCN2CCOCC2)Cc2ccccn2)c1,1.2%,-8%,2,-28%
O=C(Oc1ccc2ccccc2c1)c1ccco1,0.6%,-8%,16,-8%
CCOc1ccc(C(=O)Nc2cc(C)on2)cc1,-3.8%,-23%,-4,0%
Cc1cc(C(=O)COc2cccnc2[N+](=O)[O-])c(C)n1Cc1cccs1,-0.9%,-16%,2,1%
O=C(Nc1nc(-c2ccncc2)cs1)c1ccco1,3.9%,-27%,6,0%
Cc1cccc(NC(=O)CNC(=O)COC(=O)c2ccc(C(C)(C)C)cc2)c1C,0.2%,.,.,-4%
CC1Cc2ccccc2N1S(=O)(=O)c1cccc(C(=O)N2CCCCC2)c1 (centres undefined),-1.8%,.,.,6%
COc1cc2c(=O)n(-c3ccc(C)cc3)c(=O)n(CC(=O)c3ccc4c(c3)OCO4)c2cc1OC,3.0%,-10%,-6,7%
COCCn1c(SCC(=O)Nc2nnc(C)s2)nnc1-c1c[nH]c2ccccc12,0.7%,2%,5,-2%
COc1ccc(C)cc1NC(=O)C1CC(=O)N(Cc2ccco2)C1 (centres undefined),3.5%,-3%,5,-16%
Nc1nonc1C(=O)NCCNCc1c(OCc2ccccc2F)ccc2ccccc12,-5.4%,22%,-9,-1%
O=C1NC2(CCCCCC2)N=C1c1ccc(F)cc1,2.2%,-10%,0,-4%
CCS(=O)(=O)CCSc1nc2ccccc2o1,-3.9%,-2%,-11,3%
CCOC(=O)C(C)Sc1nc(N)c(NC(=O)c2ccc(OC)c(OC)c2)c(=O)[nH]1 (centres undefined),0.3%,-2%,3,-7%
C=CCC[C@H](Cc1ccc(F)cc1)C(=O)OC[C@H](Cc1c[nH]c2ccccc12)NC(=O)[C@@H](CC=C)CC(=O)N[C@H](CO)Cc1ccccc1,-1.4%,.,.,-13%
Cc1cccc(NC(=S)NCc2ccc3c(c2)OCO3)c1C,-3.2%,-10%,1,1%
CCOC(=O)c1c(C)[nH]c(C(=O)OCC(=O)N2CCc3ccccc32)c1C,3.4%,-7%,0,12%
COc1ccc(-n2c(=O)c3ccccc3n(CC(=O)Nc3cccc(OC)c3)c2=O)cc1,-5.7%,-1%,-11[21.1 µM],14%
O=c1oc(-c2cc3ccccc3o2)nc2sc3c(c12)CCCC3,?,-3%,-1,-5%

Bioassay records from PubChem.
